Screening data deposited in PubChem BioAssay by National Center for Advancing Translational Sciences (NCATS).
Sfp PPTase inh = inhibitors of Bacillus subtilis Sfp phosphopantetheinyl transferase | Biochemical Sfp PPTase activity, qHTS | Potency, µM, inactives show max response, negative = inhibition, actives largely listed as inhibitors | AID 1490 | Q9F4F7 | actives 3.5% (n = 310,000); active = well fitted inhibition curve with a large enough effect; inconclusive = small, poorly fitted or top-dose-only effect, or another doubt; inactive = no such curve, though single readings can be large or run the other way;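 also: the enzyme is Sfp with the accession as filed and its product quenches rhodamine fluorescence; potency is read from the fitted curve at half-maximal effect; 0% = enzyme reaction without inhibitor and -100% = no enzyme wells; top concentration of the series not given in the record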
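Fluorescence-quenching assay: 15 nM Sfp-PPTase preincubated 15 min at room temperature with compound, then 5 uM rhodamine-CoA and 12.5 uM BHQ-2-labelled YbbR peptide added. Fluorescence (ex 525/em 598 nm) read at start and after 30 min; difference gives rate.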
D2 PAM = positive allosteric modulators of human D2 dopamine receptor. AID 624464. P14416. DiscoveRx D2 beta-arrestin cells, luminescence, 90 min; 100% = 57 uM dopamine signal. potentiation, % (no concentration beside the values). actives 0.23% (n = 360,000); active = potentiation of 50% or more; inconclusive = 30% to 50%; inactive = 30% or less;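 also: compound concentration not given in the record; tested on top of an EC20 dose of dopamine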
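PathHunter D2 cells, attached overnight at 37 deg C, received compound in DMSO plus dopamine at EC20 (50 nM final) for 90 min at 37 deg C. Beta-arrestin recruitment was read as luminescence after 1 h with detection reagent at ambient temperature.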
Six1-Eya2 blk = blocks human Six1 binding to Eya2; actives 0.56% (n = 360,000); Q15475+O00167; AlphaScreen GST-Six1/His-Eya2 binding, biochemical; stronger effect = lower value; control for the full effect not named in the record; activity change, % (test concentration not listed); in the data active = activity change below about -65%; inconclusive = about -30% to -65%; inactive = above about -30%; also: % is scaled to controls: 0 for no effect and ±100 for the full control effect; compound concentration not given in the record
Target sequence (O00167 whole entry, looked up): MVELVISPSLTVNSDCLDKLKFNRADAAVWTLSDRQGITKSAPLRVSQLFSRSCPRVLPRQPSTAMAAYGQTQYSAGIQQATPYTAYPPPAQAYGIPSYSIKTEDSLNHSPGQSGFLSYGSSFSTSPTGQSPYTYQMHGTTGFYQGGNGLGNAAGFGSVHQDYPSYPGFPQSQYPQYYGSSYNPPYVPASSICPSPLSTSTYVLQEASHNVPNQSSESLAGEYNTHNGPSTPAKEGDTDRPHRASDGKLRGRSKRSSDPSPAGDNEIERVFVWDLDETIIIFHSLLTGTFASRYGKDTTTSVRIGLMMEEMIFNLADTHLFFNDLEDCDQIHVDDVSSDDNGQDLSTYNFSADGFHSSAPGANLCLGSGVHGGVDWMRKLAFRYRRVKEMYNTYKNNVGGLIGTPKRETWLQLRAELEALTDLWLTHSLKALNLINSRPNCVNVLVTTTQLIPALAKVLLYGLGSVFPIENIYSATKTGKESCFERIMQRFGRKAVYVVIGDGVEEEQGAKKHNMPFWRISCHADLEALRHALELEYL
Target sequence (Q15475 whole entry, looked up): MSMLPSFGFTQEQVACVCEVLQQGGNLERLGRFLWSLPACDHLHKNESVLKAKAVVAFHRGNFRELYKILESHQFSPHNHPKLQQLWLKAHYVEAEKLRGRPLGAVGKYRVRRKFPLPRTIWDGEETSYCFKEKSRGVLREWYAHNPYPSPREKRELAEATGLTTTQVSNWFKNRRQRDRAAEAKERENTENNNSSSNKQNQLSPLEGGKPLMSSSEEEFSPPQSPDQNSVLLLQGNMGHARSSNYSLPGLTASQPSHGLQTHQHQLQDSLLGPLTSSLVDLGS
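Six1/Eya2 binding was read as AlphaScreen signal after compounds were pinned into GST-Six1 plus His-tagged Eya2 (5X stock 250/500 nM) in pH 8.0 Tris/NaCl/TCEP buffer, beads added, then incubated 1 h, 37 C, dark.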
PINK1 modulator = modulators of PINK1 expression; PINK1 immunofluorescence, high-content cytometry, 24 h; actives 0.2% (n = 410,000); AID 624263; Potency, µM (top dose mostly 76.6 µM), for the others: top-dose activation (PINK1 increase), most hits filed as activators; active = well fitted activation curve with a large enough effect; inconclusive = small, poorly fitted or top-dose-only effect; inactive = flat fitted curve, though single readings scatter; cell line not stated here;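 also: potency is read from the fitted curve at half-maximal effect; % of control where 0% means no effect; nearly all actives have a fitted effect of over 65% in size; a mitochondrial uncoupler was the plate control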
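A stable cell line was treated with compounds at 5 concentrations for 24 hours, with CCCP as control. PINK1 levels and mitochondrial localization were measured by immunofluorescence with mitochondrial, cell and nuclear markers after fixation, read by laser-scanning cytometry.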
D2 ag = activates the human D2 dopamine receptor. DiscoveRx PathHunter D2 beta-arrestin, luminescence, 90 min; 100% = 57 uM dopamine signal. activation, % (test concentration not listed). actives 0.084% (n = 360,000). AID 624465; in the data active = activation above about 40%; inconclusive = about 15% to 40%; inactive = below about 15%; also: compound concentration not given in the record; the text of the record calls up to 30% inactive
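DiscoveRx PathHunter D2 beta-arrestin cells (2,100/well) attached overnight, then compound-stimulated 90 min at 37 C in HBSS/10 mM HEPES/0.1% Tween-20 buffer; beta-galactosidase complementation read by luminescence after 1 h at ambient temperature. Dopamine 57 uM final (EC100) as control.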
CtBP-E1A inh = blocks the CtBP interaction with E1A | AID 651724 | actives 0.49% (n = 340,000) | activity change, % (no concentration beside the values) | AlphaScreen GST-E1A/His-CtBP binding, 1536-well; stronger effect = lower value; control for the full effect not named in the record; in the data active means activity change below about -65%; inconclusive means about -30% to -65%; inactive means above about -30%; also: % is scaled to controls: 0 for no effect and ±100 for the full control effect; compound concentration not given in the record
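Steps: dispense buffer (Tris pH 8.0, NaCl 300 mM, TCEP 1 mM, BSA, Tween 20); add 5X protein mix (GST-E1A, His-CtBP, 125 nM each); pin 23 nL compound; 2 h at 37 °C, dark; add 5X beads (50 ug/mL); 1 h; read.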
TRPV1 potentiator = potentiators of human vanilloid receptor 1 (TRPV1) | Q8NER1 | TRPV1-expressing cells, Fluo-8 calcium influx, capsaicin EC20 potentiation; host cell line not named in the record; control for the full effect not named in the record | potentiation, % at 8.33 µM | actives 0.02% (n = 320,000); active means potentiation above 80%; inconclusive means 30% to 80%; inactive means below 30%; also: 0% is about no effect
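Cells expressing TRPV1 were dye-loaded with Fluo-8 and read kinetically: 10 s baseline, 3 min after compound (agonist portion), then 2 min after EC20 capsaicin (allosteric enhancer portion). Calcium-bound dye fluorescence at 480/520 nm.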
* = called active by the depositor; ? = inconclusive; · = not tested or not shown; & = joins results of further samples; [ ] = dose if it differs, or a comment.

SMILES	Sfp PPTase inh	D2 PAM	Six1-Eya2 blk	PINK1 modulator	D2 ag	CtBP-E1A inh	TRPV1 potentiator
Cc1ccc(NC(=O)CC2NCCN(Cc3ccccc3)C2=O)cc1 (stereo not drawn)	16%	-7	-20	-0.3%	-5.2	9	-11
O=C(CC1NCCc2ccccc21)Nc1ccc(Oc2ccccc2)cc1 (stereo not drawn)	-4%	10	-4	-1.5%	9.5	-5	?
CCN(CC)S(=O)(=O)c1ccc(-c2csc(C)n2)s1	-3%	-12	-7	1.5%	-1.5	4	-30
CC(C)NC(=O)N(C)C[C@H]1Oc2ccc(NC(=O)Cn3cnnn3)cc2C(=O)N([C@H](C)CO)C[C@@H]1C	·	·	6	-0.8%	-0.9	0	·
CCOC(=O)c1ccc(N2CCOCC2)c(NC(=O)c2c(-c3ccccc3)noc2C)c1	4%	-6	-2	3.5%	-2.0	0	-29
O=C(O)C1CC=CCC1C(=O)NCCc1cccc(Cl)c1 (stereo not drawn)	-1%	-5	4	?	-0.2	8	-3
CC(=O)Nc1ccc(SC[C@H](CC(C)C)N2CCN(CCc3ccccc3)CCC2=O)cc1	-21%	-14	0	-0.9%	0.4	0	0
O=C(O)c1ccc(Nc2nc(-c3ccccc3)cs2)cc1	-29%	-7	-9	0.6%	-2.3	0	7
CCN(CC(=O)Nc1c(F)cccc1F)C(=O)c1ccc(S(=O)(=O)N(CC)c2ccccc2)cc1	·	2	-2	-1.2%	0.5	·	·
O=C(Cn1ncc2c([nH]c3ccccc32)c1=O)Nc1ccc(CN2CCCCC2)cc1	15%	-10	-2	1.9%	-0.1	·	-1
CCCC(=O)NCCCCNC(=O)CCC	12%	-4	2	1.9%	-4.0	-1	2
Cc1ccc(NC(=O)c2ncn[nH]2)cc1	3%	-10	-3	0.0%	-0.9	8	0
CN1CCN(C(c2cccc(Cl)c2)c2ccccc2Cl)CC1 (stereo not drawn)	-19%	-34	-10	8.3%	-5.7	-1	-3
CCOCc1nc(N)[nH]c(=O)c1Cc1ccc(OC(C)C)cc1	1%	-5	6	0.6%	-1.9	0	?
Cc1ccc(NC(=O)CSc2nnc(C3COc4ccccc4O3)o2)c(Cl)c1 (stereo not drawn)	10%	-1	2	0.2%	-3.4	-3	10
COc1ccc(N2CCN(C(=O)c3ccc(CS(=O)c4cccc(C)c4)o3)CC2)cc1 (stereo not drawn)	2%	-4	-5	4.5%&6.3%	0.2	-2	1
Cn1nc(-c2ccc(C(=O)N3CCN(CCO)CC3)cc2)c2ccccc2c1=O	-3%	-4	6	-9.4%[38.3 µM]	-3.9	9	5
Cc1ccc(Cn2nc(C)c(NC(=O)CCCn3nc([N+](=O)[O-])c(Cl)c3C)c2C)cc1	9%	11	11	8.0%	-3.1	-1	-16
CCOc1cc(S(=O)(=O)NCc2ccccc2)ccc1Br	4%	-5	5	-0.2%	4.8	7	1
O=C(COc1cc(F)ccc1[N+](=O)[O-])N1N=C(c2cccs2)CC1c1ccco1 (stereo not drawn)	·	-6	-10	-1.9%	6.9	-5	-11
COCCNC(=O)CN1C(=O)NC2(CCOc3ccccc32)C1=O (stereo not drawn)	-3%	7	22	2.6%	-1.2	20	-12
CSc1ncccc1C(=O)OCC(=O)c1ccc(Cl)s1	·	-10	-1	1.8%	-1.6	-1	·
CC(=O)c1cccc(NC(=O)CC(C)n2ccnc2)c1 (stereo not drawn)	12%	-8	18	1.0%	-4.0	-13	-7
COCCn1cnnc1SCC(=O)Nc1sccc1C(N)=O	0%	-2	-2	2.6%	-3.2	-4	6
Cc1cc(C(=O)CSc2nnnn2-c2ccc(Cl)cc2)c(C)n1CC1CCCO1 (stereo not drawn)	22%	-12	0	8.8%[38.3 µM]	-2.3	7	0

Further results follow:
SMILES	Sfp PPTase inh	D2 PAM	Six1-Eya2 blk	PINK1 modulator	D2 ag	CtBP-E1A inh	TRPV1 potentiator
COc1ccc(/C=N/NC(=O)c2nnn(-c3nonc3N)c2C)cc1OC	·	-6	-2	2.2%	-1.7	2	·
O=C(COC(=O)c1c2ccccc2cc2ccccc12)NCC(F)(F)F	19%	3	8	2.8%	0.6	11	-15
CN(Cc1nc(-c2ccc3c(c2)OCO3)no1)CC1(N2CCOCC2)CCCCC1	7%	-8	15	5.1%	-7.7	0	0
CC(C)NC(=O)NC(=O)CN1C(=O)NC2(CCc3ccccc3C2)C1=O (stereo not drawn)	0%	-1	9	3.4%	1.9	4	23
COc1ccccc1-n1c(C)cc(/C=C2\C(=N)N3N=C(CC(=O)N4CCOCC4)SC3=NC2=O)c1C	12%	-8	-6	1.3%	1.8	·	?
Cc1ccc(C(=O)NNC(=O)c2cccs2)cc1	11%	-4	13	-0.3%	0.3	7	1
COC(=O)c1ccc(Cn2cnc3c(sc4nc(N5CCOCC5)c5c(c43)CCCC5)c2=O)o1	4%	-12	-7	0.8%	-0.9	-11	-18
CC(C)CNC(=O)COC(=O)C1c2ccccc2Oc2ccccc21	?	-3	-16	0.1%	3.6	-10	9
O=C(COc1ccc(-n2ccnc2)cc1)Nc1cccc(F)c1	14%	-12	0	-0.2%	-5.7	·	-16
O=[N+]([O-])c1ccc(SCc2ccncc2)nc1	9%	3	-1	1.1%	-0.1	·	29
Cc1ccc(C(=O)N/N=c2\oc3ccccc3cc2C(N)=O)cc1	10%	3	?	3.7%	-1.3	?	-3
COCC(=O)Nc1nc2n(n1)C(c1ccccc1)CC(c1ccc(OC)cc1)N2 (stereo not drawn)	-7%	-7	-6	-2.1%[38.3 µM]	-4.9	-10	-14
CCc1ccc(NC(=O)CS(=O)CC(=O)NCC2OCCc3ccccc32)cc1 (stereo not drawn)	9%	-4	2	-1.2%	0.4	-1	5
COc1ccccc1CN1CC(C(=O)N(C)CCc2ccccn2)CCC1=O (stereo not drawn)	·	-6	5	0.7%	-0.7	3	·
CCn1c(=O)c(CCC(=O)N2CCN(c3ccccn3)CC2)c(C)c2c(C)nn(-c3cccc(C)c3)c21	-24%	4	21	-0.8%	-2.2	·	-5
COc1cc(/C=C2/SC(=S)N(CC(=O)NNC(=O)c3ccc(F)cc3)C2=O)cc(OC)c1OC	·	-4	-3	5.2%	0.6	-8	·
COc1ccc(-c2csc3nc[nH]c(=O)c23)cc1OC	5%	-9	-1	-0.9%	-0.9	-4	10
COCCNC(=S)N1CCc2cc(OC)c(OC)cc2C1c1cccs1 (stereo not drawn)	-10%	1	-3	-0.3%	2.4	5	12
Cc1cccc2cc(C(c3nnnn3Cc3ccccc3)N3CCN(c4ccccc4)CC3)c(=O)[nH]c12 (stereo not drawn)	-27%	1	-14	-0.1%	-0.4	-20	11
COc1ccc(N2CCN(C(=O)c3ccc(CNS(=O)(=O)c4cc(C)ccc4C)cc3)CC2)cc1	-2%	3	-27	1.7%	0.0	-8	3
Cc1nn(C)cc1NC(=O)c1nn(C)cc1[N+](=O)[O-]	9%	3	6	-0.1%	-3.2	8	-5
O=C(Cc1cccc(NC(=O)C2CCCN(C(=O)C3CCCCC3)C2)c1)Nc1ccc(C(=O)N2CCCCC2)cc1 (stereo not drawn)	·	2	2	1.8%	1.7	5	·
CCc1ccccc1N1CC(C(=O)N2Cc3ccccc3CC2C(N)=O)CC1=O (stereo not drawn)	·	-5	3	-0.6%	6.1	0	·
C=CCn1c(=O)c(C(=O)Nc2cc(C)ccn2)c(O)c2ccccc21	8%	-1	-7	3.0%	-2.7	1	-5
O=C(c1ccc2[nH]c(=O)c(=O)[nH]c2c1)N1CCN(c2ccccc2)CC1	17%	-7	3	0.7%	3.6	0	-17

As entered above:
Result for Cc1ccc(NC(=O)CC2NCCN(Cc3ccccc3)C2=O)cc1 (stereo not drawn) in Six1-Eya2 blk: -20
Result for COCCNC(=S)N1CCc2cc(OC)c(OC)cc2C1c1cccs1 (stereo not drawn) in D2 PAM: 1
Result for Cc1ccc(NC(=O)c2ncn[nH]2)cc1 in D2 ag: -0.9

(cont.)
SMILES	Sfp PPTase inh	D2 PAM	Six1-Eya2 blk	PINK1 modulator	D2 ag	CtBP-E1A inh	TRPV1 potentiator
Cc1ccc(C)c(NC(=S)NNC(=O)c2csc(C)c2C)c1	3%	-45	-6	-0.9%	-9.2	-1	8
CCc1cccc(NC(=O)c2ccc(CNc3c(N4CCCC4)c(=O)c3=O)cc2)c1	-2%	-5	-10	-1.0%	4.9	-6	8
Cc1ccc(-n2nc3c(n2)/C(=N/O)CC/C3=N\O)cc1	9%	4	2	2.2%	-5.3	-3	-2
COc1cccc(C(c2nnnn2Cc2ccc(F)cc2)N2CCC(C(N)=O)CC2)c1OC (stereo not drawn)	10%	-22	10	-3.1%	-1.9	-5	6
CCn1c2ccccc2c2cc(C3N=C(N)Nc4nc5ccccc5n43)ccc21 (stereo not drawn)	11%	5	-1	·	-2.6	3	1
COc1ccc2nc3oc(C(=O)NCc4cccs4)cc3cc2c1	-18%	-9	3	1.2%	-0.4	0	·
COc1ccc(Cn2c(C)nc3ccc([N+](=O)[O-])cc3c2=O)cc1	-2%	-1	-14	1.5%	12	·	1
Cc1cc(C)c(C(=O)c2ccccc2C(=O)O)c(C)c1	·	2	8	1.0%	8.4	?	·
CC(C)C(=O)N1CCN(c2ccccc2NC(=S)NC(=O)c2ccco2)CC1	·	-3	2	-0.9%	2.5	-7	·
c1ccc(NCc2ccncc2)cc1	10%	-5	3	0.0%	0.1	-3	12
COc1ccc(F)c(CN2CCN(CCc3ccccc3)C(CCO)C2)c1 (stereo not drawn)	1%	-12	15	0.3%	2.0	-13	3
CC1(C)OC(=O)N(CCC(=O)Nc2cccc(F)c2)C1(C)O (stereo not drawn)	3%	-1	-1	0.1%	0.0	9	12
Cc1ccc(OCCOc2ccc(Cl)cc2Cl)c([N+](=O)[O-])n1	?	-19	-1	5.6%	-2.2	-19	-2
Cn1c(=O)c(=O)n(C)c2cc(S(=O)(=O)N3CCC(Cc4ccccc4)CC3)ccc21	15%	-16	-1	13%	-6.1	-11	-6
COc1ccc(CCN2C(=O)C(Oc3ccccc3C)C2c2ccc3c(c2)OCO3)cc1 (stereo not drawn)	-6%	-5	-3	-3.4%	-4.8	3	-21
